Screens deposited in PubChem BioAssay by National Center for Advancing Translational Sciences (NCATS).
RE007 growth inh = less growth of the S. pombe RE007 Vpr strain; S. pombe RE007 Vpr strain, BacTiter-Glo ATP luminescence, 24 h; control for the full effect not named in the record; Potency, µM (doses to about 92.2 µM), inactives show top-dose activity change, negative = less growth; 360,000 compounds, 0.21% hits; AID 651644; active = well fitted falling curve with a large enough effect; inconclusive = small, poorly fitted or top-dose-only effect; inactive = no such curve, though single readings can be large or run the other way;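 further: on the % scale 0 is the no-effect control and ±100 the full control effect; nearly all actives have a fitted effect of over 50% in size; the assay follows cell death caused by Vpr and the record does not say whether a fall means rescue or toxicity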
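Fission yeast strain RE007, carrying one chromosomally integrated HIV-1 vpr copy, was seeded at OD 0.01 in PMG+AL medium with 23 nL pinned compound. After 24 h at 30 °C and 99% humidity, viability was read by BacTiter-Glo luminescence.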
Marburg entry inh = blocks Marburg virus binding to or entry into cells; Marburg virus pseudotyped entry inhibition, cell reporter; control for the full effect not named in the record; about a third of the inactives were read at about 46 µM; AID 540276; 300,000 compounds, 1.8% hits; Potency, µM (highest dose often 37.8 µM), inactives show at the highest dose activity change, negative = inhibition, actives largely listed as inhibitors; active = well fitted inhibition curve with a large enough effect; inconclusive = small, poorly fitted or top-dose-only effect, or effect the other way; inactive = flat fitted curve, though single readings scatter; tested in HEK293 cells; about a fifth of its hits are not listed in these tables; further: on the % scale 0 is the no-effect control and ±100 the full control effect; luciferase read-out
NS1 inh = influenza NS1 inhibition | AID 2326 | Potency, µM (top dose mostly 46.1 µM), for the others: at the top dose activity, positive = more growth | 270,000 compounds, 0.4% hits | S. cerevisiae slowed by influenza A NS1, growth recovery by OD600; further: actives are rising curves; nearly all actives have a fitted effect of over 50% in size
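Recovery from NS1-induced slow growth read by OD600 in budding yeast switched to galactose assay medium (pH 6.0, -URA) at 1:100 dilution. Compound 23 nl per well; the matching strain lacking NS1 serves as control.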
SARS PLpro yeast = blocks SARS-CoV papain-like protease in a yeast assay; S. cerevisiae expressing SARS-CoV PLpro, growth rescue; control for the full effect not named in the record; Potency, µM (highest dose often 32.9 µM), for the others: at the highest dose activity, positive = growth rescue; 330,000 compounds, 0.19% hits; further: 0% is about no effect; nearly all actives have a fitted effect of over 55% in size; growth read by luminescence after 48 h
2A StopGo = FMDV 2A StopGo reporter, luciferase signal; human cells with a luciferase reporter of 2A StopGo recoding; control for the full effect not named in the record; Potency, µM (highest dose often 57.9 µM), without a hit: top-dose signal change, negative = less light; 410,000 compounds, 1.2% hits; AID 1159524; active = well fitted falling curve with a large enough effect; inconclusive = small, poorly fitted or top-dose-only effect; inactive = no such curve, though single readings can be large or run the other way; tested in HEK293T cells; further: on the % scale 0 is the no-effect control and ±100 the full control effect; nearly all actives have a fitted effect of over 45% in size; luciferase light after 4 h
Cruzain noTriton = blocks cruzain activity in detergent-free assay. Potency, µM, for the others: max response, negative = inhibition, usual class: inhibitors. purified cruzain, Z-FR-AMC fluorescence, no detergent. 200,000 compounds, 2.3% hits. P25779. AID 1476; active means well fitted curve in the direction sought with a large enough effect; inconclusive means small, poorly fitted or top-dose-only effect, or another doubt; inactive means no such curve, though single readings can be large; an effect the other way counts as inactive or inconclusive;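 further: plate controls were enzyme without inhibitor for no effect and buffer without enzyme for full effect; nearly all actives have a fitted effect of over 40% in size; top concentration of the series not given in the record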
Target sequence (P25779 123-467 limits assumed): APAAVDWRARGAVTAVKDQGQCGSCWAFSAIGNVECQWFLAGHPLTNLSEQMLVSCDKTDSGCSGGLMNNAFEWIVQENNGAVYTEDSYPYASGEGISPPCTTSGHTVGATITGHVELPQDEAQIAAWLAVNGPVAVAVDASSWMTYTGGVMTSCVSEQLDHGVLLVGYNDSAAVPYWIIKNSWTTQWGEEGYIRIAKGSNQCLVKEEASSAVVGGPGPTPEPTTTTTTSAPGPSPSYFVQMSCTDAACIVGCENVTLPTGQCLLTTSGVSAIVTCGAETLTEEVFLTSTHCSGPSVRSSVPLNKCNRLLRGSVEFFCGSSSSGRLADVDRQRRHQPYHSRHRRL
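Purified cruzain at 1.5 nM, pre-incubated 15 min with compound at room temperature in 100 mM sodium acetate pH 5.5, 5 mM DTT, 0.00005% Triton X-100. Reaction started with 2 uM Z-FR-AMC; AMC fluorescence increase over 60 s gives rate.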
LASV entry inh = Lassa virus entry inhibition. 300,000 compounds, 1.2% hits. Potency, µM (series often up to 37.9 µM), inactives show at the top dose activity change, negative = inhibition, actives largely listed as inhibitors. Lassa virus pseudotype entry inhibition, cell reporter; control for the full effect not named in the record. AID 540256; active means well fitted inhibition curve with a large enough effect; inconclusive means small, poorly fitted or top-dose-only effect, or effect the other way; inactive means flat fitted curve, though single readings scatter; tested in HEK293 cells; further: on the % scale 0 is the no-effect control and ±100 the full control effect; nearly all actives have a fitted effect of over 50% in size; luciferase read-out
Cruzain inh Det = inhibitors of Trypanosoma cruzi cruzain with detergent. P25779. purified cruzain, Z-FR-AMC fluorescence, 0.01% Triton. Potency, µM, without a hit: max response, negative = inhibition, actives largely listed as inhibitors. 200,000 compounds, 0.43% hits; active means well fitted curve in the direction sought with a large enough effect; inconclusive means small, poorly fitted or top-dose-only effect, or another doubt; inactive means no such curve, though single readings can be large; an effect the other way counts as inactive or inconclusive;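 further: plate controls were neutral wells for no effect and buffer without enzyme for full effect; nearly all actives have a fitted effect of over 40% in size; top concentration of the series not given in the record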
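In this qHTS format, compounds are incubated with 1.5 nM cruzain for 15 min at room temperature before 2 uM Z-FR-AMC is added. Release of AMC is followed at 360/450 nm, and progress is taken as the 60 s fluorescence difference.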
An asterisk follows results filed as active; [ ] = another dose, or the depositor's remark. Unless noted, the call rests on the fitted dose curve; in most records, active means well fitted rising curve with a large enough effect; inconclusive means small, poorly fitted or top-dose-only effect; inactive means no such curve, though single readings can be large or run the other way. Potency means the concentration at half of the fitted maximal effect. Hits appear at their usual frequency (roughly 4.7% active in at least one column).

For Cc1ccc(S(=O)(=O)N2CCC(C(=O)OC3CCOC3=O)CC2)cc1C (centres undefined) the results were RE007 growth inh -13%, Marburg entry inh -1%, SARS PLpro yeast 4%, 2A StopGo -17% and LASV entry inh -10%.
For CC(NS(=O)(=O)c1ccc(OCC(=O)N2CCOCC2)cc1)c1ccccc1 (centres undefined) the results were RE007 growth inh -1%, Marburg entry inh 0%, NS1 inh 0%, SARS PLpro yeast -8%, 2A StopGo 0%, Cruzain noTriton 7%, LASV entry inh 6% and Cruzain inh Det -1.0%.
`Cc1ccc2ncnc(-c3ccccc3)c2c1` gave RE007 growth inh 15%, Marburg entry inh -11%, NS1 inh -3%, SARS PLpro yeast 15%, 2A StopGo inconclusive and LASV entry inh 10%.
Screening CC(C)(C)CN1CCNC(=O)C1CC(=O)NC1Cc2ccccc2C1 (centres undefined) returned RE007 growth inh -5%, NS1 inh 3%, SARS PLpro yeast 0% and 2A StopGo -19%.
Screening O=C(CSc1n[nH]c(=O)n1C1CC1)Nc1ccc(Cl)c(Cl)c1 returned RE007 growth inh -13%, Marburg entry inh 3%[46.1 µM], NS1 inh -3%, SARS PLpro yeast 1%, 2A StopGo inconclusive and LASV entry inh 1%.
COC(=O)c1ccc(CSc2nc3ccc(Cl)cc3[nH]2)o1 was read as RE007 growth inh -18%, Marburg entry inh 6%, NS1 inh -4%, SARS PLpro yeast 9%, 2A StopGo inconclusive, Cruzain noTriton -8%, LASV entry inh -7% and Cruzain inh Det 5.3%.
For Cc1ccc2ccccc2c1Cn1c(-n2ccnc2)nc2c1c(=O)n(C)c(=O)n2C the results were RE007 growth inh 0%, Marburg entry inh inconclusive, NS1 inh -49%, SARS PLpro yeast -6%, 2A StopGo -13%, Cruzain noTriton inconclusive, LASV entry inh -1% and Cruzain inh Det -1.7%.
Screening CC(CNC(=O)Cn1ccc2cc(S(=O)(=O)N3CCCCC3)ccc21)c1ccccc1 (centres undefined) returned 2A StopGo -10%, Cruzain noTriton -20%, LASV entry inh -7%[46.1 µM] and Cruzain inh Det -6.6%.
O=C(O)COc1ccc(-c2nccc(-c3ccccn3)n2)cc1 was read as RE007 growth inh 7%, Marburg entry inh -14%[46.1 µM], SARS PLpro yeast 1%, 2A StopGo inconclusive and LASV entry inh inconclusive.
`Cc1ccc(S(=O)(=O)/N=C(/Nc2ccc3[nH]c(=O)[nH]c3c2)c2ccc(F)cc2)cc1` gave RE007 growth inh -12%, NS1 inh 3%, SARS PLpro yeast 1% and 2A StopGo 28%.
For O=S(=O)(c1ccc(NCc2ccccc2)cc1)N1CCOCC1 the results were RE007 growth inh 1%, Marburg entry inh -11%, NS1 inh -18%, SARS PLpro yeast -3%, 2A StopGo inconclusive and LASV entry inh -10%.
For COc1cc(C(=O)OC(C)CN2CCCC2)cc(OC)c1OC (centres undefined) the results were RE007 growth inh 21%, Marburg entry inh -13%[46.1 µM], NS1 inh -3%, SARS PLpro yeast 10%, 2A StopGo -19%, Cruzain noTriton 12%, LASV entry inh 1% and Cruzain inh Det 7.4%.
Screening O=c1cc(N2CCCCC2)c(-c2ccccc2)nn1Cc1c(Cl)cccc1Cl returned RE007 growth inh 11%, Marburg entry inh inconclusive, NS1 inh 18%, SARS PLpro yeast 0%, 2A StopGo inconclusive, Cruzain noTriton -6%, LASV entry inh 13µM* and Cruzain inh Det -1.8%.
For Cc1ccc(S(=O)(=O)CCC(=O)NCCc2ccc(Cl)cc2)cc1 the results were RE007 growth inh 0%, NS1 inh 2%, SARS PLpro yeast 3% and 2A StopGo 4%.
N=C1C(c2nc3ccccc3s2)=C(O)CN1Cc1ccccc1 was read as RE007 growth inh -7%, Marburg entry inh inconclusive, NS1 inh -5%, SARS PLpro yeast -20%, 2A StopGo 34%[activator], Cruzain noTriton 18%, LASV entry inh -16% and Cruzain inh Det -0.1%.
`O=[N+]([O-])c1ccc2c(OCc3nnc(-c4ccccc4Br)o3)ncnc2c1` gave RE007 growth inh -2%, Marburg entry inh -15%[46.1 µM], NS1 inh -6%, SARS PLpro yeast 0%, 2A StopGo -14% and LASV entry inh 9%[46.1 µM].
For CCOc1cc(O)c(-c2[nH]ncc2-c2nc(C)cs2)cc1CC the results were RE007 growth inh -14%, NS1 inh -5%, SARS PLpro yeast 0% and 2A StopGo inconclusive.
Screening O=C(NC1CCCCC1)N1CCN(c2ccccc2Cl)CC1 returned RE007 growth inh 0%, NS1 inh -30%, SARS PLpro yeast -4% and 2A StopGo 9%.
`Cc1ccc(NC(=O)CCCc2nnc3n(C)c(=O)c4sccc4n23)cc1C` gave 2A StopGo -6%, Cruzain noTriton 4%, LASV entry inh 1%[46.1 µM] and Cruzain inh Det 3.0%.
For O=C(C1CCCO1)N1CCN(C(=S)Nc2ccccc2C(F)(F)F)CC1 (centres undefined) the results were RE007 growth inh 4%, Marburg entry inh -23%, NS1 inh -4%, SARS PLpro yeast 11%, 2A StopGo -6%, Cruzain noTriton 2%, LASV entry inh -1% and Cruzain inh Det 0.5%.
COc1ccc(C(=O)NCCC2=CCCCC2)cc1OC was read as RE007 growth inh 8%, Marburg entry inh inconclusive, NS1 inh -20%, SARS PLpro yeast 4%, 2A StopGo 34%[activator], Cruzain noTriton 2%, LASV entry inh 6% and Cruzain inh Det 1.4%.
`COc1ccc(-c2noc(C3CCCN(C(=O)c4cccs4)C3)n2)cc1` (centres undefined) gave RE007 growth inh 8%, Marburg entry inh inconclusive, NS1 inh -7%, SARS PLpro yeast inconclusive, 2A StopGo -22%, Cruzain noTriton 7%, LASV entry inh 2% and Cruzain inh Det -0.5%.
For FC(F)(F)Oc1ccc(-c2cn3cccnc3n2)cc1 the results were RE007 growth inh -1%, NS1 inh -32%, SARS PLpro yeast -4% and 2A StopGo 51%[activator].
Screening Oc1c(C(c2cccc(Cl)c2)N2CCOCC2)sc2nc(-c3ccco3)nn12 (centres undefined) returned 2A StopGo -8%, Cruzain noTriton 25%, LASV entry inh 14%[46.1 µM] and Cruzain inh Det -5.0%.
Screening CCOC(=O)CSc1nc2c(c(=O)[nH]c(=O)n2C)n1CCCc1ccccc1 returned RE007 growth inh 4%, Marburg entry inh -2%, NS1 inh 2%, SARS PLpro yeast -1%, 2A StopGo -17%, Cruzain noTriton -5%, LASV entry inh 18% and Cruzain inh Det 2.6%.
CCOC(=O)c1ccc(N2C(=O)CC(Sc3ncccn3)C2=O)cc1 (centres undefined) was read as RE007 growth inh -5%, NS1 inh -5%, SARS PLpro yeast -14% and 2A StopGo 3%.
For CCOC(=O)C1=C(C)OC(N)=C(C#N)C12C(=O)N(C)c1ccccc12 (centres undefined) the results were RE007 growth inh -1%, Marburg entry inh -15%, NS1 inh -2%, SARS PLpro yeast -1%, 2A StopGo -8%, Cruzain noTriton -9%, LASV entry inh 17% and Cruzain inh Det 6.1%.
Screening CCCCCc1nn2cc(-c3ccccc3)nc2s1 returned Marburg entry inh 6%[46.1 µM], 2A StopGo -55%, Cruzain noTriton 6%, LASV entry inh inconclusive and Cruzain inh Det -1.8%.
COc1cc(Cl)ccc1OC(=O)c1cn(-c2ccccc2OC)c(=O)c2ccccc12 was read as Marburg entry inh inconclusive, 2A StopGo -10%, Cruzain noTriton 1%, LASV entry inh -31%[46.1 µM] and Cruzain inh Det -1.1%.
Screening COc1ccc(NC(=O)[C@H](C)NC(N)=O)cc1S(=O)(=O)Nc1cc(C)ccc1Br returned RE007 growth inh 9%, Marburg entry inh 11%, NS1 inh 0%, SARS PLpro yeast 0%, 2A StopGo 42%[activator] and LASV entry inh 19%.
For CC(C)(C)C(=O)NC1(C(F)(F)F)C(=O)Nc2c1c(=O)[nH]c(=O)n2-c1ccccc1 (centres undefined) the results were Marburg entry inh 4%[46.1 µM], 2A StopGo -10%, Cruzain noTriton -1%, LASV entry inh 4%[46.1 µM] and Cruzain inh Det -2.6%.
Screening CCNC(=S)N1CCC(C(N)=O)CC1 returned RE007 growth inh -6%, NS1 inh 3%, SARS PLpro yeast 0% and 2A StopGo -11%.
Screening O=C(CN(Cc1ccco1)S(=O)(=O)c1ccccc1)N/N=C/c1ccccc1C(=O)O returned RE007 growth inh 2%, Marburg entry inh 16%[46.1 µM], NS1 inh 0%, SARS PLpro yeast 1%, 2A StopGo -3% and LASV entry inh 18%.
N#CCC(=O)N/N=C/c1ccc(Sc2nc3ccccc3s2)o1 was read as RE007 growth inh 19%, Marburg entry inh 21%, NS1 inh 6%, SARS PLpro yeast -9%, 2A StopGo 10%, Cruzain noTriton inconclusive, LASV entry inh -1% and Cruzain inh Det -5.8%.
For CC(=O)Nc1cc[n+](C(C)C(=O)c2ccccc2)cc1 (centres undefined) the results were RE007 growth inh 1%, NS1 inh -24%, SARS PLpro yeast 17% and 2A StopGo -18%.
For CCc1cccc(NC(=O)COC(=O)C2CCN(c3ccc(C(F)(F)F)cn3)CC2)c1 the results were RE007 growth inh 1%, Marburg entry inh 18%, SARS PLpro yeast 0%, 2A StopGo -12% and LASV entry inh 2%.
Cc1ccc(S(=O)(=O)Nc2ccc(S(=O)(=O)Nc3nccs3)cc2)cc1C was read as RE007 growth inh 0%, Marburg entry inh 0%[46.1 µM], SARS PLpro yeast 28%, 2A StopGo 48%[activator] and LASV entry inh 18%[46.1 µM].
O=C(CN1C(=O)NC2(CCOc3ccccc32)C1=O)NCC(F)(F)F (centres undefined) was read as RE007 growth inh 1%, Marburg entry inh 10%[46.1 µM], NS1 inh 12%, SARS PLpro yeast 0%, 2A StopGo -19% and LASV entry inh 21%[46.1 µM].
`O=C(c1ccccc1NS(=O)(=O)c1ccc(F)cc1)N1CCCCC1` gave RE007 growth inh 1%, Marburg entry inh -7%, NS1 inh 7%, SARS PLpro yeast 12%, 2A StopGo 22% and LASV entry inh 0%.
CCC1CCCCN1CCCNC(=O)c1ccc(CS(=O)(=O)c2ccccc2C)o1 (centres undefined) was read as RE007 growth inh -2%, NS1 inh 3%, SARS PLpro yeast -7% and 2A StopGo -21%.
